HNF4A DNA FP – change in binding of human HNF4 alpha to DNA; activity change, % at 10 µM; HNF4a-FITC DNA binding, fluorescence polarization, 1 h; 360,000 tested, 0.3% active; P41235; in the data active = activity change above about 30%, passing the limit was not always enough;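 note: controls were the assay level and a saturating level of protein; the project sought stronger binding though the title names inhibitors; some compounds called inactive have numbers as strong as hits; positive values seem to mean higher polarization but the record does not say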
UCH37 inh – inhibitors of human deubiquitinating enzyme UCH37. Q9Y5K5. purified proteasome/UCH37, Ub-AMC cleavage fluorescence. inhibition, % (concentration not given with the values). 330,000 tested, 0.33% active. AID 588478;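 active = mean of two replicates above 20%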;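 note: 0% = compound-free wells with enzyme and 100% = wells lacking proteasome; stock transfer was 100 nL into about 20 µL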
Target sequence (Q9Y5K5 whole entry, looked up): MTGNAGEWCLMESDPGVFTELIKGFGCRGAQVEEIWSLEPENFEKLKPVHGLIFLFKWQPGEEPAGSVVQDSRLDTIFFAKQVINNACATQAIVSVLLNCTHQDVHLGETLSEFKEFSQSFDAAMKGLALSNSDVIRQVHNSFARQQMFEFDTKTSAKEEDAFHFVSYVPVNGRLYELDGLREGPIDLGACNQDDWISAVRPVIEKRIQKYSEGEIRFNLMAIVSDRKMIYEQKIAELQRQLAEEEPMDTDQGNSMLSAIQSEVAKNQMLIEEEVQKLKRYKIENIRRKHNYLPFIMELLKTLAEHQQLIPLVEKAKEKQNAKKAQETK
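Reagent: Ub-AMC substrate; assay system: Proteasome-associated human UCH37 deubiquitinase; controls: no-proteasome and no-compound wells; read-out: % inhibition of Ub-AMC cleavage fluorescence; timing: 30 min preincubation with enzyme, 25 min cleavage at room temperature; signal: AMC fluorescence from Ub-AMC cleavage, excitation 355 nm, emission 460 nm; buffer or medium: Tris-HCl pH 7.4 plus ovalbumin, ATP-MgCl2, DTT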
FGF22 binding – shifts melting point of recombinant human FGF22; Q9HCT0; AID 651658; calls only at 9.99 µM; recombinant FGF22 thermal shift, SYPRO orange fluorescence; percent of sucrose octasulfate shift, DMSO zero; 340,000 tested, 1.5% active;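 active = melting point raised past a set limit in the mean and every replicate; three in four hits are not shown here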
Target sequence (Q9HCT0 whole entry, looked up): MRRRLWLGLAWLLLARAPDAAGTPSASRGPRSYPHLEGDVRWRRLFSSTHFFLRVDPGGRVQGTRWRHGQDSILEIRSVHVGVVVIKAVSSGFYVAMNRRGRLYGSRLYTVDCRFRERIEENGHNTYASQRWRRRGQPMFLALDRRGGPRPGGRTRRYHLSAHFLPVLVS
B2AR ag – activates human beta-2 adrenergic receptor causing internalization | P07550 | Am2.2-beta2AR cells, FAP receptor internalization, flow cytometry; reference of the scale not given here | response, % (test concentration not listed) | 340,000 tested, 0.43% active | AID 504454;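 active = response above a set limit, near 3 SD of response in nonfluorescent compounds, cut at about 42% in these data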;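 note: stock transfer was 100 nL into about 11 µL; a reference agonist was the positive control; negative values mostly stem from fluorescent compounds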
E coli growth – inhibitors of Escherichia coli growth; OD600, 23 h; hits give low values; OD600 absorbance (test concentration not listed); 330,000 tested, 0.21% active; AID 1053175;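 active = OD600 absorbance below the run mean of sample wells minus 3.6 SD, in any replicate, cut at about 0.56 in these data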;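 note: stock transfer was 300 nL into about 60 µL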
ALR inh – human ALR oxidase inhibition via reduced H2O2; AID 485317; inhibition, % (no concentration beside the values); purified ALR, DTT oxidation, H2O2 HRP-luminol luminescence; 290,000 tested, 3.8% active; P55789;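 active = mean and each replicate at 75% or more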;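 note: stock transfer was 7.5 nL into about 7.5 µL; 0% = neutral wells and 100% = wells with inactivated enzyme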
Target sequence (P55789 whole entry, looked up): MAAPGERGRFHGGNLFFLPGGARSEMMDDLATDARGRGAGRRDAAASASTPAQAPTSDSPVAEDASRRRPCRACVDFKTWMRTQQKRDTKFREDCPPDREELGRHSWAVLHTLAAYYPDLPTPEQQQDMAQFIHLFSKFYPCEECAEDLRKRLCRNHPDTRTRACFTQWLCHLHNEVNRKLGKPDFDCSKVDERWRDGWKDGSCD
LANA-H2A inh – blocks KSHV LANA binding to histone H2A/H2B. cell-free LANA-H2A/H2B peptide, fluorescence polarization. inhibition, % (concentration not given with the values). 320,000 tested, 0.6% active. AID 2629; in the data active = inhibition mostly above about 10%, no sharp cut-off; inactive = mostly below about 6.7%;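 note: stock transfer was 7.5 nL into about 10 µL; 0% = median of vehicle wells and 100% = median of positive control wells; one replicate is shown; the record names a cut of 25% in any replicate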
Numbers without * were called inactive; i = inactive; / = no result given. A portion of the library. The share of hits here may be higher or lower than overall.

HNF4A DNA FP | UCH37 inh | FGF22 binding | B2AR ag | E coli growth | ALR inh | LANA-H2A inh | smiles
-1.7 | 1.4 | i | -7.6 | 0.676 | 0.2 | 2.0 | CCOC(=O)N1CCC(=NNC(=O)NC2CCCCC2)CC1
-4.4 | 6.2 | i | -16.0 | 0.702 | -2.9 | -5.5 | COc1ccc(C(=O)Nn2c(CC(C)C)nc3cc(Cl)ccc3c2=O)c(OC)c1
-2.9 | 13.3 | / | 4.0 | 0.675 | -3.9 | -0.9 | Cc1ccc(NC(=S)N=Nc2c(O)n(C)c3ccc(S(=O)(=O)N4CCOCC4)cc23)cc1C
-4.0 | 1.5 | / | -10.4 | 0.729 | -20.0 | 14.4 | CCNc1nc(Cl)nc(NCc2ccccc2)n1
4.1 | 4.9 | i | 5.0 | 0.707 | -2.4 | 3.7 | Cc1cc(CNC(=O)COc2ccc([N+](=O)[O-])cc2)c2ccccc2n1
0.4 | 2.7 | / | 1.2 | 0.721 | -4.3 | -2.6 | c1ccc(CSc2nnc(-c3ccccn3)n2-c2ccccc2)cc1
0.4 | / | i | -4.5 | / | -1.5 | -1.0 | Cc1cccc(OCC(=O)N/N=C\c2cccn2C)c1C
-1.1 | 1.3 | i | -2.4 | 0.668 | 1.1 | -5.3 | CCOCc1nnc(NC(=O)C2CC(=O)N(C3CCCC3)C2)s1 (centres undefined)
4.2 | 3.0 | i | 12.8 | 0.687 | / | -3.2 | O=C(CN1CCN(C(=O)CNC(=O)c2ccc3c(c2)OCO3)CC1)Nc1ccc(F)cc1
4.8 | -0.2 | / | 0.0 | 0.708 | -12.1 | 5.4 | COc1ccc(CCNC(=O)CN(C2CCCCC2)S(C)(=O)=O)cc1OC
-1.5 | 6.2 | / | -7.5 | 0.635 | -27.1 | -1.0 | Nc1cccnc1Sc1cc(Cl)cc(Cl)c1
4.2 | -16.5 | / | -13.2 | 0.802 | -11.2 | 0.8 | CCOc1cc(NC(=O)c2ccco2)c(OCC)cc1NC(=O)CCc1ccccc1OC
-1.0 | 2.9 | / | -3.0 | 0.742 | 60.7 | -2.7 | CCCC(=O)NC(=S)Nc1ccccc1C(=O)OC
-0.8 | -2.3 | / | -4.2 | 0.708 | -13.0 | -4.7 | CN(C)c1nccc(N(Cc2ccccc2)Cc2ccccc2)c1C#N
-0.1 | 1.3 | / | -1.0 | 0.732 | -4.1 | 1.7 | CCOc1ccc(Br)cc1CC(=O)O

Brought forward from above: 6 entries, then new ones.
HNF4A DNA FP | UCH37 inh | FGF22 binding | B2AR ag | E coli growth | ALR inh | LANA-H2A inh | smiles
4.8 | -0.2 | / | 0.0 | 0.708 | -12.1 | 5.4 | COc1ccc(CCNC(=O)CN(C2CCCCC2)S(C)(=O)=O)cc1OC
-1.5 | 6.2 | / | -7.5 | 0.635 | -27.1 | -1.0 | Nc1cccnc1Sc1cc(Cl)cc(Cl)c1
4.2 | -16.5 | / | -13.2 | 0.802 | -11.2 | 0.8 | CCOc1cc(NC(=O)c2ccco2)c(OCC)cc1NC(=O)CCc1ccccc1OC
-1.0 | 2.9 | / | -3.0 | 0.742 | 60.7 | -2.7 | CCCC(=O)NC(=S)Nc1ccccc1C(=O)OC
-0.8 | -2.3 | / | -4.2 | 0.708 | -13.0 | -4.7 | CN(C)c1nccc(N(Cc2ccccc2)Cc2ccccc2)c1C#N
-0.1 | 1.3 | / | -1.0 | 0.732 | -4.1 | 1.7 | CCOc1ccc(Br)cc1CC(=O)O
0.3 | 5.0 | / | 2.3 | 0.666 | -4.7 | 2.0 | COc1ccccc1CCNC(=O)C1CCCO1 (centres undefined)
-1.1 | -0.1 | i | 8.1 | 0.669 | -7.7 | 4.4 | Cc1cc(C)cc(C(=O)NCC(=O)OCC(=O)NCC(F)(F)F)c1
2.6 | / | i | -6.7 | / | -6.6 | 2.0 | Cc1c(/C=N/NC(=O)COc2ccccc2[N+](=O)[O-])c2ccccc2n1C
1.6 | -1.7 | i | 2.8 | 0.71 | -6.8 | -1.7 | COc1ccc(CCN2CCCC(CN(C)C(=O)c3ccoc3C)C2)cc1 (centres undefined)
-4.6 | 2.7 | i | 0.1 | 0.672 | 4.5 | 0.2 | Cc1cc(NC(=O)CN2CCCC(C)C2)no1 (centres undefined)
0.0 | 6.0 | i | 5.8 | 0.681 | 16.6 | -4.0 | CCOC(=O)CNC(=O)N1c2ccccc2Sc2ccccc21
-0.9 | -92.9 | / | 12.8 | 0.683 | -1.9 | 2.6 | CCOC(=O)c1sc2nc(C)c3c(c2c1N)CC(C)(C)OC3
-1.1 | 1.9 | / | 2.8 | 0.636 | 3.8 | -0.6 | Cc1ccc(C(=O)Nc2nnc(-c3ccco3)o2)cc1C
-2.3 | 3.2 | / | 21.8 | 0.739 | 1.1 | 3.3 | CCn1c2ccccc2c2cc(NC(=O)Cc3ccc(S(=O)(=O)N4CCOCC4)s3)ccc21
-5.8 | -3.8 | i | -6.7 | 0.643 | -2.0 | 6.7 | Cc1ccc(OCC(=O)Nc2ccccc2C(=O)NC2CC2)cc1
1.1 | 2.6 | i | 18.7 | 0.688 | -8.5 | 1.0 | CCCCC(=O)Nc1nc(C)c(-c2csc(Nc3cc(OC)ccc3OC)n2)s1
-1.2 | 2.5 | i | -8.2 | 0.71 | 31.8 | 3.3 | CC1CN(S(=O)(=O)c2ccc(C(=O)Nc3ccc(S(=O)(=O)Nc4ncccn4)cc3)cc2)CC(C)O1 (centres undefined)
5.2 | 7.1 | i | 8.7 | 0.698 | -1.8 | -0.9 | CCN(CC1CCCO1)C(=O)c1cc(COc2ccc(F)cc2F)on1 (centres undefined)
0.3 | 2.5 | / | 2.1 | 0.824 | -3.1 | -7.1 | Cn1c(N)c(C(=O)COC(=O)CCc2c[nH]c3ccccc23)c(=O)n(C)c1=O
-3.3 | -2.9 | / | -7.2 | 0.732 | -3.1 | 3.8 | NC(=O)C1CCN(C(=O)CSc2nc3c(c(-c4ccccc4)n2)CCCC3)CC1

HNF4A DNA FP | UCH37 inh | FGF22 binding | B2AR ag | E coli growth | ALR inh | LANA-H2A inh | smiles
3.2 | 1.7 | / | -1.1 | 0.72 | 4.3 | -2.4 | CCCSc1nc(C)c(C(C)=O)cc1C#N
5.8 | 7.2 | / | 28.2 | 0.647 | -33.5 | -1.1 | O=C(Nc1ccc[n+](CC(=O)c2cccc3ccccc23)c1)c1ccccc1
-3.5 | -1.1 | / | 0.1 | 0.753 | 9.9 | -10.7 | C=CCn1c(SCC(=O)NCC(=O)OCC)nnc1-c1ccccn1
-4.8 | -0.2 | i | 10.7 | 0.685 | -0.6 | 1.9 | CCN(CC(=O)Nc1ccccc1C(F)(F)F)C(=O)C1=COCCO1
0.5 | 4.2 | i | -2.8 | 0.619 | -9.3 | -0.6 | Cc1ccc(OCCCCCN2CCOCC2)c(Cl)c1
2.1 | i | i | -3.9 | 0.665 | / | -4.6 | Cc1ccc(S(=O)(=O)CCC(=O)Oc2ccc3c(C)cc(=O)oc3c2)cc1
1.1 | -4.7 | i | / | 0.616 | 5.8 | 0.5 | Cc1ccccc1NC(=O)c1ccccc1O
4.3 | 13.1 | / | -22.2 | 0.674 | 6.4 | 2.9 | CN(C)CCNC(=O)/C(=C/c1ccc(-c2cccc([N+](=O)[O-])c2)o1)NC(=O)c1ccccc1

Exported in markdown: entries from further up.
| Compound | HNF4A DNA FP | UCH37 inh | FGF22 binding | B2AR ag | E coli growth | ALR inh | LANA-H2A inh |
| --- | --- | --- | --- | --- | --- | --- | --- |
| Cn1c(N)c(C(=O)COC(=O)CCc2c[nH]c3ccccc23)c(=O)n(C)c1=O | 0.3 | 2.5 | / | 2.1 | 0.824 | -3.1 | -7.1 |
| NC(=O)C1CCN(C(=O)CSc2nc3c(c(-c4ccccc4)n2)CCCC3)CC1 | -3.3 | -2.9 | / | -7.2 | 0.732 | -3.1 | 3.8 |
